Screens deposited in PubChem BioAssay by several laboratories.
Mtb growth – M. tuberculosis H37Rv growth inhibitors, H37Rv strain (AID 1626) | M. tuberculosis H37Rv growth inhibition; higher % means a stronger effect | inhibition, % at 10 µM, or IC50 in µM where a hit was titrated | 220,000 compounds, 0.95% hits;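 active = confirmed in a dose series; inconclusive = inhibition above 80% but not taken into the dose series; inactive = below 80% or under 30% at every dose of the series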;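 note: bacteria incubated seven days before Alamar blue readout; 0% = bacteria only wells and 100% = bacteria with antibiotic wells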
YopH inh – YopH tyrosine phosphatase inhibitors, primary screen, biochemical, fluorescence Ex485/Em525 | inhibition, %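 (about 10 µM by stock and volumes)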 | 140,000 compounds, 0.16% hits | AID 898, 2007;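 active = inhibition of 50% or more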;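 note: controls were vehicle for no effect and minimum signal wells for full effect; inactives centre near -20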
Mtb bLac sens – beta-lactam sensitization of Mtb H37Rv, H37Rv | inhibition, % at 25 µM | AID 434955, 2010 | 330,000 compounds, 0.27% hits | M. tuberculosis H37Rv growth with meropenem, percent inhibition; hits of this screen are not shown here;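 active = about 74% or more and at least 40 points above the plate without the antibiotic, then above 30% in a dose series; inconclusive = first-round hits that could not be retested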;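 note: growth measured after seven days incubation then overnight dye step; 0% = bacteria only wells and 100% = bacteria with antibiotic; twin plates without the antibiotic show which effects depend on it; some results filed as inactive read as strong as hits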
RecA splice inh – Mtb RecA intein splicing inhibitors, primary screen, biochemical, fluorescence, HTS | AID 2221, 2009 | cell-free RecA intein splicing | 290,000 compounds, 0.75% hits | inhibition, %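 (about 9 µM by stock and volumes)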; in the data active = inhibition above about 30%; inconclusive = no clear call, values can overlap the other calls;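 note: 0% = vehicle wells and 100% = reference inhibitor control wells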
Target sequence (P9WHJ3 whole entry, looked up, canonical isoform): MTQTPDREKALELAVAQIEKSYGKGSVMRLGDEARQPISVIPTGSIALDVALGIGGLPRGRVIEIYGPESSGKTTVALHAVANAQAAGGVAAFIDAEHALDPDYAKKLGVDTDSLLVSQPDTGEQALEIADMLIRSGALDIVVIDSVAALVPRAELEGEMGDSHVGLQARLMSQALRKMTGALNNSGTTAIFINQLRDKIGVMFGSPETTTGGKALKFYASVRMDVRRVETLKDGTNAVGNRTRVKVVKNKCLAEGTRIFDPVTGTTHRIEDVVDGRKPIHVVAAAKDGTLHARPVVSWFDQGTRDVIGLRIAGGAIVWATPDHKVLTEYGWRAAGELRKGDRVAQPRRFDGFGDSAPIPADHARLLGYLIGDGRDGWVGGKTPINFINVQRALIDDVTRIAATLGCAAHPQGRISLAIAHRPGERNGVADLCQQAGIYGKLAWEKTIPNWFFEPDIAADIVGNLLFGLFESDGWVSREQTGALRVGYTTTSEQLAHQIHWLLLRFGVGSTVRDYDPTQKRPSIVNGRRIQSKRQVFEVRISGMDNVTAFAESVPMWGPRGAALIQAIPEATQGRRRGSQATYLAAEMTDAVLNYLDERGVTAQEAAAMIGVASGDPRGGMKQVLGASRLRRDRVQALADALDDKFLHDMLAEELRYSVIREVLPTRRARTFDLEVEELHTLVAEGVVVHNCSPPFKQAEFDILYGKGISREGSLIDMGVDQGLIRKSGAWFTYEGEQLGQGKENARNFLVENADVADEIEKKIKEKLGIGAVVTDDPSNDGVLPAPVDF
Arbovirus anti – antivirals against arbovirus infection, primary screen, cell-based, full library, 10K replicate subset; arbovirus infection cell-based antiviral screen; AID 1251, 2008; 200,000 compounds, 0.37% hits; inhibition, % at 10 µM;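 active = inhibition from about 30%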;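 note: bluetongue infection of BSR cells; cell survival read as ATP light after 72 h; 0% = infected wells without compound and 100% = uninfected wells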
Arbovirus anti repeat – second read-out of Arbovirus anti, no call of its own (marks repeat the call); inhibition, %; measured here: 10K subset replicate screen; many hits read low in the repeat;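 first of two repeat runs on a subset; 0% = infected and 100% = uninfected wells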
Active calls of the source: *; ? = inconclusive; / = no result given. An excerpt; the hit share may differ from the screen's.

SMILES | Mtb growth | YopH inh | Mtb bLac sens | RecA splice inh | Arbovirus anti | others
Cc1ccc(NC(=O)CS(=O)CC(=O)Nc2ccc(N3CCOCC3)cc2)cc1Cl (stereo not drawn) | 15.6% | -16.9 | -7.9 | 4.9 | -9.1
CN(C)N=Nc1ccc(S(=O)(=O)N2CCSC2C(=O)O)cc1 (stereo not drawn) | -7.9% | 3.7 | -8.7 | 5.2 | /
Cc1coc2cc3oc(=O)c(CCC(=O)N4CCC(C(=O)O)(c5ccccc5)CC4)c(C)c3cc12 | / | / | -2.9 | -4.7 | /
O=C(O)c1ccc(S(=O)(=O)N2CCC(n3nnc4cc(C(F)(F)F)ccc43)CC2)cc1 | / | / | -2.2 | 4.8 | /
COc1ccc(-c2nc3c4c(ncn3n2)-c2ccccc2CC42CCCC2)cc1 | 10.3% | -31.6 | 9.5 | -1.4 | 9.3
O=C(Nc1ncccn1)c1cccc(F)c1 | / | / | -7.5 | -1.9 | /
Cc1nn(-c2ccccc2)c(N2CCCC2)c1/C=C1\N=C(c2ccc(OC(C)C)cc2)OC1=O | -4.1% | -25.7 | 92.0 | 5.1 | 4.4
Cc1ccc(S(=O)(=O)CCc2nnc(N)s2)cc1C | 2.1% | -0.6 | 7.6 | -0.4 | 9.0
O=C(Nc1ccon1)c1ccc(F)c(S(=O)(=O)N2CCCCC2)c1 | / | / | ? | -0.4 | /
COc1ccc(NS(=O)(=O)c2ccc(C)c(NC(=O)c3ccc(C)c(S(=O)(=O)N4CCOCC4)c3)c2)cc1 | 4.6% | 2.6 | -4.6 | 12.7 | -5.9
COc1ccc(C)cc1NC(=O)CSc1nnc2ccc(-c3ccncc3)nn12 | / | / | -1.1 | 2.0 | /
NC(=O)CSc1nnc(-c2ccc(S(=O)(=O)N3CCCC3)cc2)o1 | -5.0% | -2.3 | 1.1 | -1.1 | 4.0
CCOC(=O)c1c(-c2ccc(C)o2)csc1NC(=S)NC(=O)c1cccs1 | 16.4% | -44.4 | -0.5 | 7.1 | 7.8
O=C1CCCCN1CC(=O)N1CCCC(N2CCN(c3ccccc3F)CC2)C1 (stereo not drawn) | / | / | -1.2 | -0.2 | /
Cc1ccc2c(c1)N(CC(=O)NCCCN1C(C)CCCC1C)C(=O)c1cccnc1O2 (stereo not drawn) | / | / | -4.4 | 0.9 | /
Cc1ccc(NC(C(N)=O)c2c(C)[nH]c(=O)[nH]c2=O)cc1 (stereo not drawn) | -14.3% | -5.9 | -10.4 | 2.0 | 14.1
COc1ccccc1NC(=S)N1CCN(c2ccccc2F)CC1 | / | / | -4.3 | -1.7 | /
Cc1ccc(C)c(NC(=O)c2cc3ccccn3n2)c1 | 6.9% | -15.0 | 0.9 | 0.4 | -1.0
CCn1c(=S)sc2c(=O)n(CC(=O)NC(C)CCc3ccccc3)c(C)nc21 (stereo not drawn) | / | / | 2.4 | 1.9 | /
COC(=O)[C@H](Cc1ccccc1)NC(=O)O[C@@H]1C(=O)c2cc(Br)ccc2O[C@H]1c1cccc(OC)c1 | / | -16.7 | -8.5 | 2.1 | 15.9
COc1ccc(-c2cn(CCC(=O)NCc3ccc(C)cc3)c(CCN)n2)cc1 | / | / | -4.2 | 0.8 | /
N#CC1=C(N)OC2=C(CC/C2=C\c2ccccc2)C1c1ccccc1 (stereo not drawn) | / | 15.0 | -4.9 | -34.1 | 1.9
O=C(NCC(=O)N(c1cccc(F)c1)C(C(=O)NC1CCCC1)c1cccnc1)c1ccco1 (stereo not drawn) | / | / | -7.4 | 5.5 | /
Cc1ccc(COc2ccc(C)nc2[N+](=O)[O-])cc1 | -1.7% | / | 0.3 | / | /
CCOC(=O)CN(C(=O)CCC(=O)Nc1cc(C)on1)C(C(=O)NC1CCCC1)c1cccnc1 (stereo not drawn) | -8.1% | -16.7 | 1.8 | 0.5 | 8.5
CCCCn1c(=O)[nH]c(=O)c2c1nc(-c1ccc(C(F)(F)F)cc1)n2C | 0.9% | / | -7.0 | -2.7 | -9.5
CSc1ccccc1OCc1cc(C(=O)N(C)C(C)c2nc(C)cs2)no1 (stereo not drawn) | / | / | -8.7 | 2.9 | /
Cc1cc(NC(=O)c2cccc(C(=O)Nc3cc(C)on3)n2)no1 | -5.5% | -6.7 | 7.3 | -1.8 | -4.5
Cc1ccc2cc(C)c3nnc(SCC(=O)c4cccs4)n3c2c1C | 8.0% | -19.6 | 4.5 | 0.4 | -2.7
COc1ccc(C2(CNC(C)=O)CCOCC2)cc1OC | 5.3% | / | -3.5 | 3.1 | -2.1 | Arbovirus anti repeat=3.6
CCn1cc(C=O)c2cc(S(=O)(=O)N3CCOCC3)ccc21 | 1.6% | 3.9 | 0.4 | -1.2 | 6.9
O=C(NC1CC1)C1=C[C@H](c2c[nH]c3ccccc23)C[C@H](OCc2ccc(CO)cc2)O1 | 2.5% | / | 8.1 | 10.3 | /
CC(C)Sc1nc(O)c(Cc2ccccc2)c(=O)[nH]1 | -3.8% | -3.2 | 5.0 | -3.0 | 9.1 | Arbovirus anti repeat=1.6
O=C(NCC1CCCO1)c1ccc(NC(=O)c2cccc(Br)c2)cc1 (stereo not drawn) | / | / | 3.9 | -0.5 | /
Cc1nnc2sc(SCc3cccc(Cl)c3)nn2c1=O | -5.6% | / | -3.4 | 14.8 | 30.5*
CCOc1ccc(S(=O)(=O)N2CCCCC2)cc1NC(=O)CC1OC(=O)c2ccccc21 (stereo not drawn) | / | / | -11.9 | 0.0 | /

Entries listed so far that contain fluorine:
SMILES | Mtb growth | YopH inh | Mtb bLac sens | RecA splice inh | Arbovirus anti | others
O=C(O)c1ccc(S(=O)(=O)N2CCC(n3nnc4cc(C(F)(F)F)ccc43)CC2)cc1 | / | / | -2.2 | 4.8 | /
O=C(Nc1ncccn1)c1cccc(F)c1 | / | / | -7.5 | -1.9 | /
O=C(Nc1ccon1)c1ccc(F)c(S(=O)(=O)N2CCCCC2)c1 | / | / | ? | -0.4 | /
O=C1CCCCN1CC(=O)N1CCCC(N2CCN(c3ccccc3F)CC2)C1 (stereo not drawn) | / | / | -1.2 | -0.2 | /
COc1ccccc1NC(=S)N1CCN(c2ccccc2F)CC1 | / | / | -4.3 | -1.7 | /
O=C(NCC(=O)N(c1cccc(F)c1)C(C(=O)NC1CCCC1)c1cccnc1)c1ccco1 (stereo not drawn) | / | / | -7.4 | 5.5 | /
CCCCn1c(=O)[nH]c(=O)c2c1nc(-c1ccc(C(F)(F)F)cc1)n2C | 0.9% | / | -7.0 | -2.7 | -9.5

(next part)
SMILES | Mtb growth | YopH inh | Mtb bLac sens | RecA splice inh | Arbovirus anti | others
Cc1cc(NC(=O)CN(C)CCOc2ccccc2)ccc1Br | ? | / | 85.1 | 2.5 | -15.5
C#CCOC(=O)CCCC(=O)Nc1ccccc1OC | -9.8% | -6.7 | -0.5 | 0.2 | 2.4
CCN(CC)c1ccc(NC(=O)/C=C/c2cc(Br)ccc2OC)cc1 | / | -24.6 | -8.2 | 2.7 | -7.6
Cc1ccc(C(=O)CC(C(=O)O)P(=O)(c2ccccc2)c2ccccc2)cc1 (stereo not drawn) | -3.9% | / | 1.3 | 0.6 | 1.7
O=C(Nc1ccc2c(c1)OCO2)N1CCN(c2ncccn2)CC1 | -2.5% | 3.4 | -11.2 | -1.3 | -1.6
CCOc1ccc(C(C(=O)NC2CCCCC2)N(C(=O)c2ccco2)c2ccc(-n3cnnn3)c(C)c2)cc1 (stereo not drawn) | 13.4% | -18.1 | -17.7 | 1.2 | -7.7
Cc1ccc(-c2nc3ncccc3o2)cc1NC(=S)NC(=O)c1ccco1 | -6.4% | / | 2.6 | 1.4 | -3.4
Cc1ccc(NC(=O)CCOc2ccccc2C)cc1C | / | / | 31.6 | -0.4 | /
Cc1cc(C(=O)Nc2ccccc2N2CCOCC2)c(C)o1 | 7.1% | / | -9.0 | -0.7 | /
N#CC1=C(N)N(c2ncn[nH]2)C2=C(C(=O)CCC2)C1c1ccccc1 (stereo not drawn) | -8.8% | / | -5.4 | -0.8 | -0.1
Cc1ccc2c(c1)/C(=C/c1ccccc1)C(=O)N2 | / | / | 14.3 | -12.1 | /
COc1ccc(CC(=O)NCC(=O)N/N=C/c2sccc2C)cc1 | / | / | -1.1 | 1.9 | /

Three compounds out of the list, arranged by molar mass, rising:
SMILES | Mtb growth | YopH inh | Mtb bLac sens | RecA splice inh | Arbovirus anti | others
O=C(Nc1ccc2c(c1)OCO2)N1CCN(c2ncccn2)CC1 | -2.5% | 3.4 | -11.2 | -1.3 | -1.6
N#CC1=C(N)N(c2ncn[nH]2)C2=C(C(=O)CCC2)C1c1ccccc1 (stereo not drawn) | -8.8% | / | -5.4 | -0.8 | -0.1
Cc1cc(NC(=O)CN(C)CCOc2ccccc2)ccc1Br | ? | / | 85.1 | 2.5 | -15.5

Going on with the list:
SMILES | Mtb growth | YopH inh | Mtb bLac sens | RecA splice inh | Arbovirus anti | others
O=Cc1ccccc1OCCN1CCCC1=O | / | / | 1.1 | -0.4 | /
O=C(NC1CCCCC1)C1CC(=O)N(c2cccc([N+](=O)[O-])c2)C1 (stereo not drawn) | 5.9% | / | 0.3 | -4.9 | -3.4
Nc1[nH]n2c(=O)c3c(nc2c1N=Nc1ccc(Cl)cc1)CCCC3 | 10.7µM* | 0.6 | 73.6 | 4.5 | -22.7
Nc1ncc(Br)cc1S(=O)(=O)NCCC(=O)NCc1ccc(F)cc1 | / | / | ? | 3.1 | /
CC(=O)Nc1ccc(C(=O)/C=C/c2ccc[nH]2)cc1 | -3.6% | / | -6.2 | -0.9 | /
O=C(Nc1cccc(C(=O)O)c1)/C(=C\c1ccc2c(c1)OCO2)NC(=O)c1ccc(Br)o1 | -2.6% | / | 2.6 | -1.6 | 5.4
O=C(CN1CCCCC1)N/N=C/c1ccccc1Br | / | / | -8.1 | -1.9 | /
OCc1nnc2c3ccccc3c(-c3ccccc3)nn12 | -10.0% | 15.5 | -2.8 | -1.0 | 2.8
COc1ccc(NC(=S)NCCc2ccc(S(N)(=O)=O)cc2)c(OC)c1 | -5.9% | / | -10.1 | -4.0 | 14.5
COc1ccc(C(CCN2CCCC(C)C2)c2c(OC)cc(OC)c3c(-c4ccccc4)cc(=O)oc23)cc1 (stereo not drawn) | 7.53µM* | / | 100.0 | 20.2 | /
CN(C)c1ccc(C(=O)OCC(=O)NCC2CCCO2)cc1 (stereo not drawn) | -3.0% | 8.5 | -21.4 | 0.5 | 3.3
COC(=O)c1cn(NC(=O)c2cc([N+](=O)[O-])ccc2F)c(=O)c2ccccc12 | 6.8% | / | 25.9 | 2.2 | -14.2

The closing 2 records of the section above come first, to join the parts.
SMILES | Mtb growth | YopH inh | Mtb bLac sens | RecA splice inh | Arbovirus anti | others
CN(C)c1ccc(C(=O)OCC(=O)NCC2CCCO2)cc1 (stereo not drawn) | -3.0% | 8.5 | -21.4 | 0.5 | 3.3
COC(=O)c1cn(NC(=O)c2cc([N+](=O)[O-])ccc2F)c(=O)c2ccccc12 | 6.8% | / | 25.9 | 2.2 | -14.2
CCOc1ccc(NS(=O)(=O)c2ccc(C(=O)NC3CCC(O)CC3)cc2)cc1 (stereo not drawn) | / | / | -3.6 | -2.6 | /
CC(C)OC(=O)CCC(=O)Nc1nc2ccccc2s1 | -2.4% | -44.2 | 5.6 | -0.5 | -1.2
O=C(CSc1nnc(-c2ccc([N+](=O)[O-])cc2)o1)Nc1ccccn1 | ? | / | 33.9 | -0.2 | -2.5
COc1cccc(CNC(=S)Nc2cc(C)ccc2C)c1 | 1.1% | / | 1.7 | 4.1 | 5.3
CC(=O)Nc1cccc(C(=O)N2CCN(Cc3ccccc3)CC2)c1 | -6.7% | -14.2 | -9.2 | -0.7 | 5.7
O=C(c1cccc([N+](=O)[O-])c1)N1CCN(c2n[nH]c(=O)[nH]c2=O)CC1 | -6.8% | / | 1.4 | -3.3 | /
NC(=O)COC(=O)CC1CC2CCC1C2 (stereo not drawn) | 7.3% | / | -0.7 | 0.9 | 1.3
O=C(Cc1ccccc1)NC(NNc1ccccc1)(C(F)(F)F)C(F)(F)F | -3.4% | -15.2 | 4.6 | 1.2 | 4.4
CC(=O)c1ccc(S(=O)(=O)NCCC(=O)OC(C)C(=O)Nc2ccc(F)cc2)cc1 (stereo not drawn) | / | / | -9.1 | -3.8 | /
